Bioassay records deposited in PubChem BioAssay by National Center for Advancing Translational Sciences (NCATS).
StopGo reporter = FMDV 2A StopGo reporter, luciferase signal; human cells with a luciferase reporter of 2A StopGo recoding; control for the full effect not named in the record; hit rate 1.2% among 410,000; Potency, µM (top dose mostly 57.9 µM), inactives show top-dose signal change, negative = less light; active = well fitted falling curve with a large enough effect; inconclusive = small, poorly fitted or top-dose-only effect; inactive = no such curve, though single readings can be large or run the other way; tested in HEK293T cells; note: nearly all actives have a fitted effect of over 45% in size; luciferase light after 4 h
An asterisk follows results filed as active; ? = inconclusive; [ ] = dose if it differs, or a comment. % is set by controls: 0 for no effect and ±100 for the full control effect; potency is the fitted concentration of half-maximal effect.

no. | SMILES | StopGo reporter
1 | COc1ccc(CC2NCCC3=CC(=O)CCC32)cc1O (configuration not stated) | -13%
2 | O=C1OC(OC(=O)c2cccnc2Nc2cccc(C(F)(F)F)c2)c2ccccc21 (configuration not stated) | -2%
3 | Cc1nn(-c2ccccc2)c(C)c1CC(=O)NCC1Cc2cc(F)cc(-c3cccnc3)c2O1 (configuration not stated) | -11%
4 | COc1cc(=O)n2c(c1C(=O)NC(C)c1ccco1)CCN(Cc1cc3ccccc3o1)CC2 (configuration not stated) | 1%
5 | Cc1c(C(=O)N2CCCCC2)sc2ncnc(NCCc3ccccn3)c12 | -18%
6 | O[C@@H]1CCCC[C@@H]1N1CCC(c2ccccc2)CC1 | -11%
7 | COc1cc(OC)c(OC)cc1CN1CCCC(c2nc(C)ncc2-c2ccc(F)cc2)C1 (configuration not stated) | -10%
8 | O=S(=O)(NCc1nnc2n1CCN(Cc1ccccc1Cl)CC2)c1ccccc1 | -12%
9 | O=C(c1cccnc1)C1CCCN(Cc2ccc3c(c2)CN(C(=O)c2ccc4[nH]ccc4c2)CCO3)C1 (configuration not stated) | -10%
10 | COc1ccccc1CCNc1ncnc2sc(C(=O)N3CCCCC3)c(C)c12 | -28%
11 | CCn1c(-c2cccc(OC)c2)nc2cc(NC(C)=O)cc(C(=O)N3CCC[C@H]3C(=O)OC)c21 | -6%
12 | CN(C)c1ccc(C(=O)N2CCCC(Cn3cc(C(=O)N4CCCC4)nn3)C2)cc1 (configuration not stated) | -3%
13 | COc1cccc(CNC(=O)c2c(OC)cc(=O)n3c2CCN(C(=O)c2ccc(Cl)cc2)CC3)c1 | 0%
14 | COC(=O)[C@@H]1CCCN1C(=O)c1cnn(-c2ncc3c(n2)-c2ccccc2CCC3)c1C1CC1 | 9%
15 | C[C@H]1CC[C@]2(NC1)O[C@H]1C[C@H]3[C@@H]4CC[C@H]5C[C@@H](O)CC[C@]5(C)[C@H]4CC[C@]3(C)[C@H]1[C@@H]2C | -9%
16 | CC(=O)N(C)CC#CCN1CCCC(CO)C1 (configuration not stated) | -12%
17 | O=C(c1ccc(Cn2cnnn2)cc1)N1CCOc2ccc(C(O)C3CCCCC3)cc2C1 (configuration not stated) | -25%
18 | NCCCC[C@H](NC(=O)[C@H](Cc1ccccc1)NC(=O)[C@H](CCCN=C(N)N)NC(=O)[C@@H](N)Cc1ccc(O)cc1)C(N)=O | -4%[6.7 µM]
19 | Cc1cc2c(c(-c3ccc(Cl)cc3)c1)OC(CNC(=O)CCC(=O)N(C)C)C2 (configuration not stated) | -1%
20 | CC(=O)c1ccc(-c2ccc3c4c(ccc3c2)OC(CNC(=O)[C@@H]2CCCN2C(C)=O)C4)s1 (some centres not stated) | 19%

Pulled by compound from the entries so far, two records:
no. | SMILES | StopGo reporter
3 | Cc1nn(-c2ccccc2)c(C)c1CC(=O)NCC1Cc2cc(F)cc(-c3cccnc3)c2O1 (configuration not stated) | -11%
12 | CN(C)c1ccc(C(=O)N2CCCC(Cn3cc(C(=O)N4CCCC4)nn3)C2)cc1 (configuration not stated) | -3%

As entered above:
StopGo reporter, no. 5 : -18%
StopGo reporter, no. 10 : -28%
StopGo reporter, no. 3 : -11%
StopGo reporter, no. 20 : 19%
StopGo reporter, no. 6 : -11%
StopGo reporter, no. 18 : -4%[6.7 µM]
StopGo reporter, no. 11 : -6%

Next results.
no. | SMILES | StopGo reporter
21 | COc1cc(-c2cnc3ccccc3c2)cc2c1OCCN(C(=O)Cn1nccc1C)C2 | -10%
22 | COc1ccccc1Nc1nc(NCCO)nc(N2CCCC2)n1 | -13%
23 | COc1ccc(CNc2ccc(N3CCN(C(C)=O)CC3)cc2)cc1OC | ?
24 | COc1ccc(CCNc2ncnc3sc(C(=O)N4CCCCC4)c(C)c23)cc1OC | ?
25 | Cn1c(-c2ccncc2)nc2cc(C(=O)N3CCCC3c3nccs3)cc(NC(=O)C3CCC3)c21 (configuration not stated) | -5%
26 | COCC1CCCN(Cc2ccc3c(c2)CN(C(=O)c2cnn(C(C)C)c2)CCO3)C1 (configuration not stated) | -11%
27 | OCCNc1nc(Nc2ccccc2Oc2ccccc2)nc(N2CCCC2)n1 | -21%
28 | COc1ccc(N2CCN(C(=O)c3cc(NC(C)=O)c4c(c3)ncn4CCc3ccccn3)CC2)cc1 | -3%
29 | Cc1ccsc1CN1CCc2nnc(CCNC(=O)c3ccc(F)cc3)n2CC1 | -4%
30 | CCC(O)CNC(=O)c1cnn(-c2nccc(-c3cc(C)sc3C)n2)c1C1CC1 (configuration not stated) | 36%[activator]
31 | CC(C)C[C@H](NC(=O)[C@H](Cc1ccccc1)NC(=O)CNC(=O)[C@H](CS)N(C(=O)[C@@H](N)Cc1ccc(O)cc1)C(C)(C)C)C(=O)N([C@H](C(=O)O)[C@H](C)O)C(C)(C)C | -2%[6.7 µM]
32 | Cc1c(C(=O)N(C)C2CCOC2)sc2ncnc(NCc3ccc4c(c3)OCO4)c12 (configuration not stated) | 11%
33 | COc1ccc(-c2cc(C(=O)N3CCc4c(cnc(C)c4CNC(=O)c4ccsc4)C3)[nH]n2)cc1 | -13%
34 | CCOC(=O)CCc1cnccc1-c1cccc(OC)c1O | -17%
35 | C[C@@H]1CN(Cc2ccc3c(c2)CN(Cc2nc(-c4ccccc4)cs2)CCO3)C[C@H](C)O1 | ?
36 | CC(C)c1cc(/C=C(\C#N)C(=O)NCCCc2ccccc2)cc(C(C)C)c1O | ?
37 | COc1ccc2c(c1)CCc1cnc(-n3ncc(C(=O)NCCN4CCOCC4)c3C)nc1-2 | -8%
38 | C[C@H]1CC[C@]2(NC1)O[C@H]1C[C@H]3[C@@H]4CC[C@H]5C[C@@H](O[C@@H]6O[C@H](CO)[C@H](O[C@@H]7O[C@H](CO)[C@@H](O)[C@H](O[C@@H]8OC[C@@H](O)[C@H](O)[C@H]8O)[C@H]7O[C@@H]7O[C@H](CO)[C@@H](O)[C@H](O)[C@H]7O)[C@H](O)[C@H]6O)CC[C@]5(C)[C@H]4CC[C@]3(C)[C@H]1[C@@H]2C | 25µM*
39 | COc1cc(OC)c2nc(-c3cc4c(c(OC)c3)OCCN(Cc3cn(C)nc3C)C4)cc(C)c2c1 | -12%
40 | O=C(Cc1cscn1)N1CCOc2ccc(CN3CCN(c4ccccn4)CC3)cc2C1 | -5%
41 | Cc1cc(C)nc(-c2cccc3c2OC(CNC(=O)C2CCOC2)C3)n1 (configuration not stated) | -15%
42 | Cc1ccccc1C(=O)NC(C)c1nnc2n1CCN(Cc1ccccc1F)CC2 (configuration not stated) | -11%
43 | COc1cc(CN2CCOc3ccc(CN4CCC(Oc5cccnc5)CC4)cc3C2)ccc1F | ?
44 | CC(=O)c1ccc(C(=O)NCc2nc(-c3ccccc3NC(=O)c3cc(C)oc3C)oc2C)cc1 | 10%
45 | CC(=O)NCCNC(=O)c1cnn(-c2nccc(-c3cc(C)sc3C)n2)c1C | -8%
46 | COc1ccc(CN2CCc3nnc(CNC(=O)c4cc(C)oc4C)n3CC2)c2ccccc12 | -21%
47 | COc1ccc(CN2CCOc3ccc(CN4CCC(Oc5cccnc5)CC4)cc3C2)c(F)c1 | ?
48 | COC(=O)c1c(OCc2ccccn2)cc(=O)n2c1CCN(C(=O)c1n[nH]c3c1CCCC3)CC2 | -11%
49 | CC1CN(CCC(=O)NCc2ccc3ncccc3c2)Cc2cc(Cl)ccc2O1 (configuration not stated) | -4%
50 | Cc1cccc2cc(CN(CC3CCCO3)C(=O)C3CC3)c(N(C)C)nc12 (configuration not stated) | -2%
51 | C[C@]12CC[C@@H](O)C[C@@H]1CC[C@@H]1[C@@H]2CC[C@]2(C)C=CC[C@@H]12 | -3%
52 | CCOC(=O)c1sc(SCc2ccccc2)c2c1CC(C)(C)CC2=O | ?
53 | COc1ncccc1C(=O)N1CCOc2ccc(C(O)C(c3ccccc3)c3ccccc3)cc2C1 (configuration not stated) | 5%
54 | CSc1ncccc1C(=O)NCC1Cc2cc(-c3cnccn3)cc(Cl)c2O1 (configuration not stated) | 12%
55 | CCN1CCN(C(=O)c2cnn(-c3ncc4c(n3)-c3ccccc3CCC4)c2COC)CC1 | 9%
56 | COCc1c(C(=O)NC2CCOC(C)(C)C2)cnn1-c1nccc(-c2cccs2)n1 (configuration not stated) | 31%[activator]
57 | CCC1CN(Cc2cn[nH]c2-c2ccc(OC)cc2)Cc2cc(OC)ccc2O1 (configuration not stated) | -20%
58 | O=C1CCc2cc(S(=O)(=O)Nc3cccc(Cl)c3)ccc2N1 | 20%
59 | CC1CCC(C(C)C)C(P(=O)(c2ccccc2)c2ccccc2)C1 (configuration not stated) | -27%
60 | COc1cccc(-c2ccc(O)c(CNC(c3ccccc3)c3ccc(Cl)cc3)c2)n1 (configuration not stated) | 11%
61 | O=C(c1ccccc1-n1cccn1)N1CCOc2c(cc(-c3ncc(C(F)(F)F)cc3Cl)cc2OCC2CCCO2)C1 (configuration not stated) | -22%
62 | CCC1CN(CC(=O)NCc2n[nH]c3c2CCCCC3)Cc2cc(OC)ccc2O1 (configuration not stated) | -9%
63 | COc1cc(OC)c(OC)cc1CN1CCOc2ccc(CN3CCN(C(C)=O)CC3)cc2C1 | -30%
64 | O=C(N[C@@H]1c2ccccc2C2(CCN(C(=O)c3ccc4c(c3)OCCO4)CC2)[C@H]1O)c1cccnc1 | -1%
65 | COc1ccc(CN2CCC(n3cc(C(=O)N4CCCCC4)nn3)CC2)c(OC)c1 | -10%
66 | CSc1nnc(CNC(=O)c2c(-c3ccccc3)noc2C)n1-c1ccc(F)cc1 | -6%
67 | Cc1c(C(=O)NCCc2cccnc2)cnn1-c1ncc2c(n1)-c1ccccc1CC2 | -10%
68 | CC(c1ccon1)N(C)C(=O)c1cnn(-c2ncc3c(n2)-c2ccccc2CC3)c1C1CC1 (configuration not stated) | 25%
69 | OC[C@H]1O[C@@H](O[C@H]2[C@H](O)[C@@H](O)[C@H](O)O[C@@H]2CO)[C@H](O)[C@@H](O)[C@@H]1O | 2%
70 | CC1(C)CC(C(=O)N2CCOc3ccc(CN4CCN(Cc5ccccn5)CC4)cc3C2)CCO1 (configuration not stated) | -9%
71 | CCc1noc(C)c1C(=O)N1CCOc2ccc(CN3CCCC(C(=O)c4cccnc4)C3)cc2C1 (configuration not stated) | -6%
72 | Cc1cccc2nc(CNC(=O)CN3Cc4cc(Cl)ccc4OC(C)C3)cn12 (configuration not stated) | -5%
73 | Cc1ncc2c(c1CNS(=O)(=O)c1cccs1)CCN(C(=O)/C=C/c1cc(F)cc(F)c1)C2 | -5%
74 | O=C(c1ccc2c(c1)OCO2)N(Cc1cc2ccc(F)cc2nc1N1CCC(O)CC1)CC1CCCO1 (configuration not stated) | -7%

Of the compounds above, three contain a furan ring, fused or not:
no. | SMILES | StopGo reporter
4 | COc1cc(=O)n2c(c1C(=O)NC(C)c1ccco1)CCN(Cc1cc3ccccc3o1)CC2 (configuration not stated) | 1%
44 | CC(=O)c1ccc(C(=O)NCc2nc(-c3ccccc3NC(=O)c3cc(C)oc3C)oc2C)cc1 | 10%
46 | COc1ccc(CN2CCc3nnc(CNC(=O)c4cc(C)oc4C)n3CC2)c2ccccc12 | -21%

Of the compounds above, these have an aryl thioether with sulfur outside any ring:
no. | SMILES | StopGo reporter
52 | CCOC(=O)c1sc(SCc2ccccc2)c2c1CC(C)(C)CC2=O | ?
54 | CSc1ncccc1C(=O)NCC1Cc2cc(-c3cnccn3)cc(Cl)c2O1 (configuration not stated) | 12%
66 | CSc1nnc(CNC(=O)c2c(-c3ccccc3)noc2C)n1-c1ccc(F)cc1 | -6%

A portion of the library; rates above refer to the full screens.
